NS1 function inh: blocks influenza NS1 protein function. S. cerevisiae slowed by influenza A NS1, growth recovery by OD600. Potency, µM (top dose mostly 46.1 µM), for inactives: top-dose activity, positive = more growth. 270,000 tested, 0.4% active; active means well fitted rising curve with a large enough effect; inconclusive means small, poorly fitted or top-dose-only effect; inactive means no such curve, though single readings can be large or run the other way; also: nearly all actives have a fitted effect of over 50% in size
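OD600 was taken as the measure of yeast growth restored by compound in an NS1-expressing S. cerevisiae strain. Cells had been washed out of glucose medium and diluted 1:100 into galactose -URA medium, pH 6.0.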
Lassa entry inh: blocks Lassa virus binding to or entry into cells. Lassa virus pseudotype entry inhibition, cell reporter; control for the full effect not named in the record. 300,000 tested, 1.2% active. Potency, µM (series often up to 37.9 µM), for the others: top-dose activity change, negative = inhibition, most hits filed as inhibitors. AID 540256; active means well fitted inhibition curve with a large enough effect; inconclusive means small, poorly fitted or top-dose-only effect, or effect the other way; inactive means flat fitted curve, though single readings scatter; tested in HEK293 cells; also: % is scaled to controls: 0 for no effect and ±100 for the full control effect; nearly all actives have a fitted effect of over 50% in size; luciferase read-out
Cruzain inh Det: cruzain (T. cruzi) inhibition with detergent; purified cruzain, Z-FR-AMC fluorescence, 0.01% Triton; Potency, µM, without a hit: max response, negative = inhibition, usual class: inhibitors; 200,000 tested, 0.43% active; AID 1478;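 also: plate controls were neutral wells for no effect and buffer without enzyme for full effect; nearly all actives have a fitted effect of over 40% in size; top concentration of the series not given in the record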
Target sequence (P25779 123-467 limits assumed): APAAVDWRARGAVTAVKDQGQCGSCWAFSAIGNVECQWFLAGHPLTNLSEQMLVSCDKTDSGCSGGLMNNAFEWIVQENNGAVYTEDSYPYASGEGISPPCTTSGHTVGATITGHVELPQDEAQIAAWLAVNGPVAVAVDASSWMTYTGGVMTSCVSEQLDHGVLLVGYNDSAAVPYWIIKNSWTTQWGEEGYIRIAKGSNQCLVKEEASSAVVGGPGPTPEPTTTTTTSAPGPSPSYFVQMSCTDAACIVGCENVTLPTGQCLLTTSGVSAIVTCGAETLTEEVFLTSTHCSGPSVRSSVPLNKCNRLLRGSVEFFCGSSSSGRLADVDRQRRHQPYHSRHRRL
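Steps: dispense cruzain (1.5 nM final) in acetate buffer pH 5.5 with DTT and 0.01% Triton X-100; pin-transfer compounds; incubate 15 min RT; add Z-FR-AMC (2 uM final); read fluorescence every 30 s, using the 60 s intensity change.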
StopGo reporter: lowers the luciferase signal of an FMDV 2A StopGo reporter. AID 1159524. human cells with a luciferase reporter of 2A StopGo recoding; control for the full effect not named in the record. 410,000 tested, 1.2% active. Potency, µM (top dose mostly 57.9 µM), for inactives: at the highest dose signal change, negative = less light; active = well fitted falling curve with a large enough effect; inconclusive = small, poorly fitted or top-dose-only effect; inactive = no such curve, though single readings can be large or run the other way; tested in HEK293T cells; also: % is scaled to controls: 0 for no effect and ±100 for the full control effect; nearly all actives have a fitted effect of over 45% in size; luciferase light after 4 h
SARS PLP yeast: blocks SARS-CoV papain-like protease in a yeast assay; S. cerevisiae expressing SARS-CoV PLpro, growth rescue; control for the full effect not named in the record; Potency, µM (top dose mostly 32.9 µM), without a hit: at the top dose activity, positive = growth rescue; 330,000 tested, 0.19% active; AID 485353; active means well fitted rising curve with a large enough effect; inconclusive means small, poorly fitted or top-dose-only effect; inactive means no such curve, though single readings can be large or run the other way; also: 0% is about no effect; nearly all actives have a fitted effect of over 55% in size; growth read by luminescence after 48 h
Cruzain noTriton: blocks cruzain activity in detergent-free assay; AID 1476; Potency, µM, for the others: max response, negative = inhibition, hits mostly inhibitors; 200,000 tested, 2.3% active; purified cruzain, Z-FR-AMC fluorescence, no detergent;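 also: plate controls were enzyme without inhibitor for no effect and buffer without enzyme for full effect; nearly all actives have a fitted effect of over 40% in size; top concentration of the series not given in the record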
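Purified cruzain at 1.5 nM, pre-incubated 15 min with compound at room temperature in 100 mM sodium acetate pH 5.5, 5 mM DTT, 0.00005% Triton X-100. Reaction started with 2 uM Z-FR-AMC; AMC fluorescence increase over 60 s gives rate.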
Marburg entry inh: inhibitors of Marburg virus binding or cell entry; Potency, µM (doses to about 37.8 µM), without a hit: at the top dose activity change, negative = inhibition, most hits filed as inhibitors; AID 540276; 300,000 tested, 1.8% active; Marburg virus pseudotyped entry inhibition, cell reporter; control for the full effect not named in the record; about a third of the inactives were read at about 46 µM; active = well fitted inhibition curve with a large enough effect; inconclusive = small, poorly fitted or top-dose-only effect, or effect the other way; inactive = flat fitted curve, though single readings scatter; tested in HEK293 cells; about a fifth of its hits are not listed in these tables; also: % is scaled to controls: 0 for no effect and ±100 for the full control effect; luciferase read-out
RE007 growth inh: less growth of the S. pombe RE007 Vpr strain | AID 651644 | Potency, µM (doses to about 92.2 µM), for the others: at the top dose activity change, negative = less growth | 360,000 tested, 0.21% active | S. pombe RE007 Vpr strain, BacTiter-Glo ATP luminescence, 24 h; control for the full effect not named in the record; active = well fitted falling curve with a large enough effect; inconclusive = small, poorly fitted or top-dose-only effect; inactive = no such curve, though single readings can be large or run the other way;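 also: % is scaled to controls: 0 for no effect and ±100 for the full control effect; nearly all actives have a fitted effect of over 50% in size; the assay follows cell death caused by Vpr and the record does not say whether a fall means rescue or toxicity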
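Fission yeast strain RE007, carrying one chromosomally integrated HIV-1 vpr copy, was seeded at OD 0.01 in PMG+AL medium with 23 nL pinned compound. After 24 h at 30 °C and 99% humidity, viability was read by BacTiter-Glo luminescence.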
An asterisk follows results filed as active; ? = inconclusive; / = no result given; & = joins results of further samples; [ ] = another dose, or the depositor's remark. Unless noted, calls follow the shape of the dose curve; as a rule, active = well fitted curve in the direction sought with a large enough effect; inconclusive = small, poorly fitted or top-dose-only effect, or another doubt; inactive = no such curve, though single readings can be large; an effect the other way counts as inactive or inconclusive. Potency is read from the fitted curve at half-maximal effect.

SMILES	NS1 function inh	Lassa entry inh	Cruzain inh Det	StopGo reporter	SARS PLP yeast	Cruzain noTriton	Marburg entry inh	RE007 growth inh
CCOC(=O)c1ccc(S(=O)(=O)NNC(=O)COc2ccccc2C)cc1	12%	-16%	0.4%	-4%	-6%	-16%	?	6%
O=C(OCc1cccc(C(F)(F)F)c1)c1ccc(-c2nnn(Cc3ccc(F)cc3)n2)cc1	/	?	1.8%	-9%	/	-4%	5%[46.1 µM]	/
Cc1cc(NC(=O)CSc2nnc(-c3cccnc3)n2C)no1	-3%	1%	2.4%	6%	-1%	-8%	21%	13%
COc1ccc(CNC(=O)CSc2ncc3c(n2)-c2cc(Cl)ccc2N(Cc2ccccc2)S3(=O)=O)cc1OC	/	1%[46.1 µM]	0.4%	-8%	/	-7%	/	/
Cc1c(C#N)c(N)c(C(=O)c2ccccc2)n1Cc1ccccc1	-18%	-7%	-7.5%	-16%	-2%	-13%	-2%[46.1 µM]	3%
N#CCC(=O)Nc1ccc(C(=O)OCC(=O)N2CCCC2=O)cc1	/	-1%	/	17%	3%	/	14%	-8%
COc1cccc(NC(=O)c2cc([N+](=O)[O-])ccc2NC(=O)CNCC2CCCO2)c1 (stereo unspecified)	/	3%	/	-21%	1%	/	?	16%
COc1cc(/C=C(\C#N)c2nc3ccc(C)cc3[nH]2)ccc1OC(C)C	/	?	-0.6%	15%	/	4%	?	/
Cc1cc(OCC(=O)N2CCC(C(N)=O)CC2)c2c(C)cc(=O)oc2c1	3%	/	/	-16%	-3%	/	/	2%
CN1C(=O)N(C)C(=O)C2(Cc3cc([N+](=O)[O-])ccc3N(C)C2)C1=O	/	-4%[46.1 µM]	/	15%	-5%	/	0%[46.1 µM]	8%
Cc1nc2nc(SCC(=O)NCc3ccco3)nn2c(C)c1Cc1c(F)cccc1Cl	-8%	25%	-1.3%	?	-1%	-8%	-12%&-12%[46.1 µM]	28%
Cc1cc(=O)[nH]c(SCC(=O)N2CCCCC2)n1	3%	/	/	11%	3%	/	/	4%
Fc1cccc(CSc2ccc(-c3cccs3)nn2)c1	/	0%[46.1 µM]	-7.7%	39%[activator]	/	-5%	/	/
COCCCN1CN=C(NS(=O)(=O)c2ccc(C)cc2)NC1	0%	0%[46.1 µM]	/	13%	-6%	/	4%[46.1 µM]	-5%
O=C(c1cccc(C(F)(F)F)c1)c1c[nH]c(C(=O)NCCCN2CCOCC2)c1	/	13%	/	0%	2%	/	9%[46.1 µM]	9%
CC(=O)Nc1ccc2c(c1)C(N1CC3CCC(CC3)C1)c1ccccc1-2 (stereo unspecified)	/	?	/	?	/	/	?	-12%
Cn1c(SCc2nc(-c3cccs3)no2)nnc1C1CCCCC1	-5%	-6%	2.5%	-21%	-2%	21%	5%	-14%
O=C(CN1CCN(Cc2ccc(Cl)cc2)CC1)N/N=C/c1ccncc1	2%	-13%	-0.8%	0%	7%	-5%	2%	-3%
O=C(NCc1ccco1)c1ccc2c(c1)N(Cc1ccccc1)C(=O)c1ccccc1S2	/	?	0.6%	-4%	/	?	/	/
COc1ccc(/C=C2\N=C(SC)SC2=O)cc1OC	-63%	7%	-4.7%	-1%	-3%	-6%	?	-8%
CCN(CC)S(=O)(=O)c1ccc(NCCc2ccccn2)nc1	11%	1%	/	-10%	1%	/	18%[46.1 µM]	-5%
COc1ccccc1CCC(=O)OCC(=O)Nc1cc(C)nn1-c1ccccc1	/	-12%[46.1 µM]	/	-9%	/	/	2%	4%
CCOC(=O)N1CCN(C(=S)NC(=O)c2cc(Br)ccc2Cl)CC1	/	-24%	/	-9%	0%	/	-6%[46.1 µM]	-1%
N#Cc1c(/N=C/c2cccs2)sc2c1CCCCC2	-91%	?	-1.5%	?	-14%	-6%	?	-22%
NC(=NC(=O)c1ccccc1)N1CCN(C(c2ccccc2)c2ccccc2)CC1	1%	4%[46.1 µM]	/	-5%	1%	/	-21%[46.1 µM]	1%
C/C(=N\NC(=S)Nc1ccccc1)c1c(O)n(C)c(=O)n(C)c1=O	10%	?	-13%	-8%	-38%	12%	3%	9%
CC(C)(C)c1ccc(C(=O)c2c[nH]c(C(=O)NCC3CCCO3)c2)cc1 (stereo unspecified)	12%	?	-2.0%	-20%	-8%	12%	-14%[46.1 µM]	-17%
Cc1cc(C)c(NC(=O)c2oc3c(c2C)-c2[nH]ncc2CC3)c(C)c1	/	?	-4.7%	17%	/	1%	2%[46.1 µM]	/
Cn1nc(C(=O)OCC(=O)N2CCc3ccccc32)c2ccccc2c1=O	-11%	11%	0.9%	2%	5%	25%	9%	8%
CN(C)S(=O)(=O)c1cccc(COC(=O)CN2CCCCCC2=O)c1	15%	4%	/	-19%	3%	/	-6%[46.1 µM]	12%
CCc1ccc(OCC(=O)NNC(=O)CSc2ncnc3sc(C)c(C)c23)cc1	14%	-5%	0.8%	-8%	7%	20µM*	-9%	-8%
CCN(CC)C(=O)c1cnn(-c2ccccc2)c1NC(=O)c1ccco1	-5%	2%	3.6%	31%	3%	0%	-2%&-2%	1%
CCn1cc(C(=O)NCc2ccc(Cl)cc2)c(=O)c2cc(S(=O)(=O)N(C)C)ccc21	-2%	?	/	1%	6%	/	?	1%
CSc1nnnn1-c1c(C)cc(C)cc1C	-4%	?	/	2%	-3%	/	5%[46.1 µM]	30%
O=c1cccc2n1CC1CC2CN(C(c2ccccc2)c2sc3ncnn3c2O)C1 (stereo unspecified)	?	/	2.6%	9%	1%	4%	-1%	-4%
Cn1c(=O)cc(N)n(Cc2ccccc2)c1=O	20%	-13%	3.9%&0.5%	-2%	-3%	-9%&0%	-14%	-23%
COc1ccc(N2CCN(C(=O)CSc3nc4[nH]ncc4c(=O)n3-c3cccc4ccccc34)CC2)cc1	/	?	/	-27%	1%	/	?	-5%
CCc1cc(-c2onc(C)c2-c2cscn2)c(O)cc1OC	-3%	?	/	?	6%	/	-21%[46.1 µM]	10%
CCc1ccc2oc(C(=O)NCCc3ccc(S(N)(=O)=O)cc3)cc(=O)c2c1	-1%	0%[46.1 µM]	/	-8%	-1%	/	4%[46.1 µM]	-3%
Cc1cccc(CN2C(=O)c3ccccc3Sc3ccc(C(=O)N4CCCC4)cc32)c1	/	-29%[46.1 µM]	-1.3%	0%	/	?	/	/
CC1(C)C(c2ccccc2)=NC(c2cccnc2)=[N+]1[O-]	-7%	-2%	-2.9%	-12%	0%	-9%	4%	-12%
COc1ccccc1-c1cc(C(=O)Nc2cc(Cl)ccc2O)no1	/	9%[46.1 µM]	-3.2%	5%	/	-13%	24%[46.1 µM]	/
CCN(CC)S(=O)(=O)c1ccc(C(=O)OCn2nnc3ccccc3c2=O)cc1	-6%	14%	12%	-30%	-4%	-1%	3%&0%	5%
O=C(NCC1CCCO1)C(c1cccs1)N(Cc1cccs1)C(=O)Cn1nnc(-c2cccs2)n1 (stereo unspecified)	-2%	?	-4.8%	17%	-18%	?	?	0%
Cn1nc(OCC(=O)O)cc1C(F)(F)F	2%	8%	/	-12%	0%	/	1%	-16%
COc1ccc(CCC(=O)OCC(=O)NCc2ccc(OC)c(OC)c2)cc1OC	/	7%	/	-6%	/	/	-6%	11%
Cc1cc(C)nc(/N=C(\NC(=O)C(C)(C)C)Nc2ccccc2)n1	0%	20%	/	-12%	2%	/	10%[46.1 µM]	-10%
CN(C)c1ccc(CNC(=O)c2ccc(Cn3c(SCc4ccccc4)nc4cccnc43)cc2)cc1	/	/	-7.5%	15%	/	?	14%[46.1 µM]	/
O=C(CSc1n[nH]c(-c2cccnc2)n1)Nc1ccc(Br)cc1	2%	6%[46.1 µM]	/	-3%	0%	/	-21%[46.1 µM]	-3%
CCc1ccc(CN(C(=O)c2ccc(OC)cc2)C2CCS(=O)(=O)C2)cc1 (stereo unspecified)	/	-13%[46.1 µM]	-3.1%	-20%	/	10%	-5%[46.1 µM]	/
CCn1c(SCC(=O)NNC(=O)c2ccccc2)nnc1-c1ccncc1	5%	-10%	1.2%	-20%	1%	-13%	10%	-10%
CC(C)Oc1cccc(C2NC(=O)c3ccccc3O2)c1 (stereo unspecified)	0%	18%	/	55%[activator]	3%	/	-1%	9%
CN1CCN(CC(=O)Nc2ccc([N+](=O)[O-])cc2Br)CC1	-2%	8%	/	0%	1%	/	-2%[46.1 µM]	-11%
CCc1nc(NCc2ccc3c(c2)OCO3)c2oc3ccccc3c2n1	-35%	?	-6.8%	-4%	-17%	-5%	-48%	1%
CC(C)NC(=O)c1cc2c(-c3ccc(Cl)cc3)nn(C)c2s1	-4%	/	-7.6%	-14%	3%	-2%	/	0%
COc1cccc(N2C(=O)CSC23C(=O)N(Cc2ccccc2)c2ccccc23)c1 (stereo unspecified)	/	-15%[46.1 µM]	-6.2%	-29%	/	-24%	/	/
Cc1ccc(NC(=O)C2CCN(S(=O)(=O)c3c(C)noc3/C=C/c3ccco3)CC2)nc1	17%	?	-6.2%	35µM*	-5%	16%	?	-6%
Cc1ccc(-n2ncc3c(NC4CCCCC4)ncnc32)cc1Cl	/	7%[46.1 µM]	0.6%	?	/	3%	/	/
CCOc1ccccc1CNC(=O)c1oc2c(c1C)-c1nn(Cc3cccc(Cl)c3)cc1CC2	/	17%[46.1 µM]	-3.2%	-14%	/	16%	/	/
O=C(CCl)NC1CCCc2ccccc21 (stereo unspecified)	9%	-27%	/	?	0%	/	?	-5%

2 compounds picked at random from the list so far:
SMILES	NS1 function inh	Lassa entry inh	Cruzain inh Det	StopGo reporter	SARS PLP yeast	Cruzain noTriton	Marburg entry inh	RE007 growth inh
CN1C(=O)N(C)C(=O)C2(Cc3cc([N+](=O)[O-])ccc3N(C)C2)C1=O	/	-4%[46.1 µM]	/	15%	-5%	/	0%[46.1 µM]	8%
Cc1ccc(-n2ncc3c(NC4CCCCC4)ncnc32)cc1Cl	/	7%[46.1 µM]	0.6%	?	/	3%	/	/

Screens from PubChem.
